Beta2AR agonist: activates human beta-2 adrenergic receptor causing internalization | hit rate 0.43% among 340,000 | P07550 | Am2.2-beta2AR cells, FAP receptor internalization, flow cytometry; reference of the scale not given here | response, % (test concentration not listed);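 active means response above a set limit, near 3 SD of response in nonfluorescent compounds, cut at about 42% in these data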;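 further: stock transfer was 100 nL into about 11 µL; a reference agonist was the positive control; negative values mostly stem from fluorescent compounds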
Vif A3G: HIV-1 Vif–A3G interaction blockers – biochemical, TR-FRET, GST-Vif 1-94, biotin-A3G peptide, dose response retest, primary screen (AID 1117319) | TR-FRET GST-Vif / biotin-A3G peptide binding; higher % means a stronger effect; test concentration not given here; strong numbers were not always called active | inhibition, %, or IC50 in µM where a hit was titrated | hit rate 0.57% among 260,000;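 active means above the screen mean plus three standard deviations and confirmed in dose response; inconclusive means results disagree or hit not tested in dose response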;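 further: Vif residues 1-94 fused to GST binding biotinylated APOBEC3G peptide 110-148; 0% = full assay without inhibitor and 100% = GST in place of GST-Vif; retest series ran down from 100 µM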
ALR inh: human ALR oxidase inhibition via reduced H2O2. inhibition, % (no concentration beside the values). P55789. hit rate 3.8% among 290,000. purified ALR, DTT oxidation, H2O2 HRP-luminol luminescence;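 active means mean and each replicate at 75% or more; inconclusive means only one of the two met; inactive means neither met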;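 further: stock transfer was 7.5 nL into about 7.5 µL; 0% = neutral wells and 100% = wells with inactivated enzyme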
HNF4A DNA FP: change in binding of human HNF4 alpha to DNA; P41235; HNF4a-FITC DNA binding, fluorescence polarization, 1 h; activity change, % at 10 µM; hit rate 0.3% among 360,000; AID 1224865; in the data active means activity change above about 30%, passing the limit was not always enough;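 further: controls were the assay level and a saturating level of protein; the project sought stronger binding though the title names inhibitors; some compounds called inactive have numbers as strong as hits; positive values seem to mean higher polarization but the record does not say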
Calb FLC: C. albicans growth modulation with fluconazole; C. albicans CaCi-2 (fluconazole-resistant clinical isolate) + fluconazole, Alamar Blue growth, 48 h; growth inhibition, % (test concentration not listed); hit rate 0.57% among 300,000;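 active means most replicates above 75%; inconclusive means exactly half above 75%; inactive means most below 75%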;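 further: all wells also contain fluconazole at 8 µg/ml as a sub-toxic cotreatment; 0% = median of DMSO wells and 100% = median of geldanamycin control wells; wells of about 8 µL received 7.5 nL stock; the first replicate is given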
LANA-H2B inh: blocks KSHV LANA binding to histone H2A/H2B; cell-free LANA-H2A/H2B peptide, fluorescence polarization; inhibition, % (no concentration beside the values); hit rate 0.6% among 320,000; Q9QR71; in the data active means inhibition mostly above about 10%, no sharp cut-off; inactive means mostly below about 6.7%;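 further: stock transfer was 7.5 nL into about 10 µL; 0% = median of vehicle wells and 100% = median of positive control wells; one replicate is shown; the record names a cut of 25% in any replicate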
RanGTP-Impb inh: inhibitors of RanGTP-importin-beta interaction, primary screen, biochemical, FRET, CFP-Ran, YFP-importin-beta, homogeneous. hit rate 1.1% among 300,000. AID 2216. inhibition, % (test concentration not listed). cell-free CFP-Ran/YFP-importin-beta FRET ratio;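 active means most replicates above 15%; inconclusive means exactly half above 15%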;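 further: 0% = DMSO wells and 100% = Ran loaded with GDP instead of GTP; wells of about 40 µL received 100 nL stock; the first replicate is given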
* = called active by the depositor; ? = inconclusive; nt = no result given.

item	canonical_smiles	Beta2AR agonist	Vif A3G	ALR inh	HNF4A DNA FP	Calb FLC	LANA-H2B inh	RanGTP-Impb inh
1	CSc1ccc(CN2CCN(Cc3ccccc3)C(CCO)C2)cc1 (centres undefined)	-4	5%	-3	-6.1	?	0.2	-1.0
2	O=c1c2cc(F)ccc2[nH]c(=S)n1Cc1ccc(F)cc1	-7	-1%	nt	-0.4	19	-0.9	-3.6
3	CCCCN(C(=O)CSCc1c(C)noc1C)c1c(N)n(CCC)c(=O)[nH]c1=O	1	nt	1	-2.3	3	2.1	0.6
4	COc1ccc(S(=O)(=O)N2CCN(Cc3cccc(F)c3)CC2)cc1	-1	nt	-14	2.1	-3	-3.4	-0.6
5	COC(=O)C1=C(C)N(Cc2ccccc2)C(=NCc2cccc(Cl)c2)N[C@H]1c1ccccc1	19	nt	-17	8.3	nt	1.5	nt
6	O=C(N/N=C/c1ccco1)c1cccc(N2CCCC2=O)c1	-10	nt	-1	-7.4	8	3.5	2.7
7	O=C(CSc1nnc2ccccn12)N1CCc2ccccc2C1	-5	2%	1	-2.3	26	-1.7	?
8	Cc1csc(=O)n1CC(=O)OC(C)C(=O)Nc1ccc(N(C)C)cc1 (centres undefined)	7	2%	nt	-2.3	nt	nt	nt
9	O=C(C(=O)N1CCOCC1)c1cn(CC(=O)N2CCCCC2)c2ccccc12	1	nt	5	0.8	-8	-3.8	6.9
10	COc1ccc(CN2CCN(CCCc3ccccc3)C(CCO)C2)cc1OC (centres undefined)	-3	nt	-9	-0.6	-4	2.7	3.1
11	O=C(c1ccccc1F)N(Cc1cccs1)C1CCS(=O)(=O)C1 (centres undefined)	4	nt	1	2.2	-4	6.7	0.4
12	COc1ccc(-n2nc3c(c2NC(C)=O)CS(=O)(=O)C3)cc1	-1	2%	1	9.6	4	-4.9	4.9
13	CC(=O)c1ccc(N2CCN(S(=O)(=O)c3ccc4c5c3CC(=O)N5CC(C)S4)CC2)cc1 (centres undefined)	4	nt	-14	1.6	-2	-7.3	-1.0
14	COc1ccc(S(=O)(=O)NCCSCc2ccccc2C)cc1Br	-5	28%	98*	3.8	7	3.0	2.3
15	O=C(NC1CCN(Cc2ccc(Cl)c(Cl)c2)CC1)c1ccccc1	-2	-4%	nt	-1.5	-29	-0.9	2.0
16	COc1ccc(-c2nc(-c3ccc4c(c3)OCO4)[nH]c2-c2ccc(OC)cc2)cc1	28	5%	12	-1.9	21	-3.0	4.8
17	CC(NC(=O)c1cn(C)c2ccc(S(=O)(=O)N3CCCC3)cc2c1=O)c1ccccc1 (centres undefined)	-14	-1%	-4	-0.3	-19	-7.5	4.6
18	O=c1oc(CCCO)cc2ccc(C#Cc3cccnc3)cc12	7	nt	0	2.1	nt	-0.4	nt
19	COc1ccc(NC(=O)CS(=O)(=O)c2cccc(Cl)c2)cc1	-16	-2%	-2	5.1	0	1.2	0.9
20	Cc1nn(C(C)CC(=O)O)c(C)c1Br (centres undefined)	7	29%	-5	-4.6	2	6.0	-0.2
21	CN(C)S(=O)(=O)c1cc(NC(=O)COC(=O)Cc2ccc(Cl)cc2Cl)ccc1Cl	-2	nt	nt	0.7	14	0.7	7.0
22	CCOC(=O)c1[nH]c(C)c(C(=O)N2CCc3ccccc32)c1C	2	3%	-3	-0.3	-1	-2.2	-1.2
23	Cc1ccc(NC(=O)Nn2cnnc2)cc1	2	nt	-25	6.2	19	-0.2	-0.4
24	CCCSc1nc(O)c(C2OC(=O)c3c2ccc(OC)c3OC)c(=O)n1C (centres undefined)	0	-1%	?	-1.4	-10	1.9	-2.3
25	CN(C)NC(=O)C12CCC(C)(C(=O)O1)C2(C)C (centres undefined)	-3	-5%	-3	1.6	2	-2.1	0.7
26	CCC1=C(OC(=O)N(CC)CC)N2C(=O)OC(=NCc3ccccc3)[C@]2(C)[C@H]2C1=CC[C@H]1C(=O)N(CC(=O)OC)C(=O)[C@H]12	4	nt	-2	7.8	5	-2.0	-3.9
27	CCOC(=O)c1ccc(NC(=O)c2cc(C)nn2-c2ccccc2)cc1	0	4%	nt	3.8	-4	-2.8	1.4
28	CC(C)CNC(=O)NC(=O)COc1ncnc2sccc12	0	12%	9	-1.0	-22	1.0	?
29	COc1ccccc1N(C(=O)CCl)c1cn(C(C)=O)c2ccccc12	29	0%	-4	-0.3	3	0.0	1.6
30	O=S(=O)(/N=C(/Nc1nccs1)c1ccc(F)cc1)c1ccccc1	6	-7%	-2	-1.5	nt	-4.1	nt
31	CN(C)N=Nc1nc2c(c(=O)n(C)c(=O)n2C)n1C	0	nt	-4	-6.2	-6	1.1	-1.7
32	COc1ccccc1C(=O)Nc1ccc(Oc2ncnc3sc(-c4ccccc4)cc23)cc1	4	-3%	4	1.4	9	4.2	1.6
33	CN1CCN(CC(C)(C)NS(=O)(=O)c2ccc(Cl)cc2)CC1	0	0%	1	-0.7	-26	11	2.0
34	NC(=O)c1nn(-c2ccc(Oc3ccccc3)cc2)c(=O)cc1O	3	8%	3	-3.1	-5	0.4	-3.0
35	CCSc1nc2c(c(=O)[nH]1)C(c1cccs1)C(C(=O)OC)=C(C)N2 (centres undefined)	-2	-2%	2	6.7	8	-3.6	2.9
36	COc1ccc(C2Nc3ccccc3C(=O)N2O)cc1OC (centres undefined)	16	0%	-10	-3.7	97*	9.2	1.0
37	CC(=O)Nc1ccc(C(=O)OCC(=O)NC2CCCCCCC2)cc1	3	-3%	22	0.3	-14	0.3	0.1
38	CCN(CC)S(=O)(=O)c1cccc(C(=O)N2CC(O)CC2C(=O)OC)c1 (centres undefined)	-5	4%	0	-5.0	1	2.9	3.0
39	CCN1CCCC1CNC(=O)C1c2cc(OC)c(OC)cc2C(=O)N(C)C1c1cccnc1 (centres undefined)	0	0%	nt	-1.6	1	1.2	-2.4
40	COc1cc(C2NC(=O)NC(C)=C2C(=O)OC2CCCCC2)cc(Br)c1O (centres undefined)	-5	nt	?	3.0	3	1.5	-2.3
41	CCn1c(SC(C)C(=O)NCC2CCCO2)nc2scc(-c3ccccc3)c2c1=O (centres undefined)	-2	-9%	-3	0.1	6	-4.4	6.2
42	CCOC(=O)C1CCN(C(=O)c2cc(COc3ccc(OC)c4ccccc34)on2)CC1	2	nt	-160	-2.3	7	0.5	-1.3
43	O=C(Nc1ccc(OC(F)(F)F)cc1)c1ccc(S(=O)(=O)N2CCOCC2)o1	-1	nt	-6	7.5	60	-4.5	-0.1
44	O=C(CSCc1cc(=O)n2nc(C3CC3)sc2n1)Nc1ccc(F)cc1	10	2%	47	-1.7	-1	-1.0	8.0
45	Cc1occc1-c1nnc(SCc2cc(=O)n3cc(Br)ccc3n2)n1C	nt	27%	46	nt	nt	1.0	nt
46	Cc1nn(CC#N)c(=O)n1-c1ccc(Cl)cc1	4	-11%	-37	-3.4	16	-1.3	2.2
47	Cc1ccc(CNC(=O)CCCCn2c(=O)[nH]c3ccsc3c2=O)cc1	12	-54%	nt	-2.0	1	-0.8	0.0
48	Cc1noc(C)c1NC(=O)N(C)C[C@H]1Oc2ccc(NC(=O)C3CC3)cc2C(=O)N([C@H](C)CO)C[C@@H]1C	-12	nt	5	5.3	nt	-3.7	nt
49	Cc1ccc(Cl)cc1NC(=O)CCC(=O)Nc1cc(Cl)ccc1C	1	-3%	-2	0.9	-5	0.1	-4.7
50	CC(Oc1ccccc1)C(=O)Nc1c2c(nn1-c1ccccc1)CS(=O)(=O)C2 (centres undefined)	-1	nt	1	1.6	-2	4.3	0.7

(next part)
item	canonical_smiles	Beta2AR agonist	Vif A3G	ALR inh	HNF4A DNA FP	Calb FLC	LANA-H2B inh	RanGTP-Impb inh
51	COc1cc2c(c(OC)c1OC)C(c1ccc3c(c1)OCO3)CC(=O)O2 (centres undefined)	0	-2%	nt	3.6	nt	nt	nt
52	COc1ccccc1OCc1nc2ccccc2[nH]1	-9	9%	-10	0.8	-10	1.2	1.6
53	Cc1ccc(S(=O)(=O)CC(=O)N(C)C)cc1	3	8%	-15	2.6	2	-2.0	-1.1
54	CC1CCCCN1C(=O)COC(=O)CSc1ccc(C(N)=O)cc1[N+](=O)[O-] (centres undefined)	8	7%	nt	1.4	nt	nt	nt
55	O=C(Cn1cnc([N+](=O)[O-])n1)NCc1ccccc1	-9	2%	-57	0.2	21	-2.7	3.0
56	COc1ccc(N2C(=O)C3CCCN3C2c2ccccc2OC)cc1 (centres undefined)	2	1%	nt	1.1	-3	-2.4	1.4
57	COc1ccc(Cn2c(=O)oc3ccccc32)cc1F	-2	15%	-1	2.7	1	1.2	-2.2
58	Cc1cccnc1NC(=O)CNC(=O)C12CC3CC(CC(C3)C1)C2	0	0%	nt	0.9	2	nt	0.5
59	CS(=O)(=O)c1cnc2c(-c3ccsc3)cnn2c1N	-1	0%	-3	1.1	11	-4.1	2.1
60	O=C(OCC(=O)N1CCc2ccccc21)c1ccccn1	4	-3%	-19	6.1	18	3.9	5.3
61	O=C(Cc1ccccc1)N1CCN(C(=O)c2cccs2)CC1	-8	3%	2	-2.7	-1	2.2	1.2
62	CCC[C@@H]1CCCC/C=C\CCCC(=O)OCCN1C(=O)OC(C)(C)C	1	nt	-5	-2.3	nt	-15	nt

High-throughput results as filed in PubChem BioAssay.
